From PubChem BioAssay
ClpP mod = qHTS Assay for Activators of ClpP. 1.9% of 340,000 active. Potency, µM (top dose mostly 57.5 µM), without a hit: at the highest dose activity change, negative = active. purified B. subtilis ClpP, FRET peptide cleavage, 20 min. ATP-dependent Clp protease proteolytic subunit (Bacillus subtilis (strain 168)), P80244. AID 651965, 2013; active = well fitted falling curve with a large enough effect; inconclusive = small, poorly fitted or top-dose-only effect; inactive = no such curve, though single readings can be large or run the other way; note: potency is the fitted concentration of half-maximal effect; the source files actives as falling curves though it sought activators and does not explain the sign; nearly all actives have a fitted effect of over 65% in size; many hits overshoot -100%
Target sequence (P80244 whole entry, looked up): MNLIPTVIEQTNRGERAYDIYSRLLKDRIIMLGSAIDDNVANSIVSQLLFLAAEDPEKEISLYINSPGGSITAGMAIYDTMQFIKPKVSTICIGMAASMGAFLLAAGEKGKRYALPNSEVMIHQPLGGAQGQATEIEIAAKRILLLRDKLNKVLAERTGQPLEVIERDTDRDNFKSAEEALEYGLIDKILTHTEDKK
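Buffer: 100 mM Tris/HCl pH8, 100 mM KCl, 0.05% low protease BSA, 2.5% glycerol, 0.01% Tween-20. ClpP 10 microg/mL final; 20 min RT; delta FRET normalized to ADEP and DMSO controls.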
gsp agonist = gsp mutant agonism; gsp mutant cells, cAMP HTRF, 30 min; control for the full effect not named in the record; Potency, µM (series often up to 76.9 µM), without a hit: at the highest dose activation (cAMP increase), most hits filed as activators; 0.13% of 340,000 active; AID 624287; active = well fitted activation curve with a large enough effect; inconclusive = small, poorly fitted or top-dose-only effect, or another doubt; inactive = no such curve, though single readings can be large or run the other way; cell line not stated here;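 note: phosphodiesterase inhibitor Ro 20-1724 added with compounds to block cAMP breakdown; potency is the fitted concentration of half-maximal effect; nearly all actives have a fitted effect of over 60% in size; about a fifth of the inactives were tested at one dose only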
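Cells stably selected in G418 were plated at 2000/well, grown 16-24 hr, then given compounds in DMSO with the PDE inhibitor […] (300 uM solution added) for 30 min at 37C; cAMP was read by HTRF.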
CtBP-E1A inh = blocks the CtBP interaction with E1A | AlphaScreen GST-E1A/His-CtBP binding, 1536-well; active compounds read low; control for the full effect not named in the record | activity change, % (test concentration not listed) | 0.49% of 340,000 active; in the data active means activity change below about -65%; inconclusive means about -30% to -65%; inactive means above about -30%; note: % is set by controls: 0 for no effect and ±100 for the full control effect
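Steps: dispense buffer (Tris pH 8.0, NaCl 300 mM, TCEP 1 mM, BSA, Tween 20); add 5X protein mix (GST-E1A, His-CtBP, 125 nM each); pin 23 nL compound; 2 h at 37 °C, dark; add 5X beads (50 ug/mL); 1 h; read.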
gsp antag = antagonists of gsp mutant (McCune-Albright syndrome) | Potency, µM (top dose mostly 76.9 µM), for inactives: at the highest dose activity change, negative = inhibition, most hits filed as inhibitors | AID 624288 | 0.4% of 340,000 active | gsp-mutant cells, cAMP HTRF, 30 min; control for the full effect not named in the record; active = falling curve of any shape with a large fitted effect; inconclusive = falling curve, mostly with a smaller effect; inactive = flat or rising curve; cell line not stated here;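 note: intracellular cAMP measured with PDE inhibitor Ro 20-1724 present during compound exposure; potency is the fitted concentration of half-maximal effect; % is set by controls: 0 for no effect and ±100 for the full control effect; nearly all actives have a fitted effect of over 65% in size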
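HTRF cAMP measurement after 30 min RT detection following 30 min, 37C compound treatment alongside […] (added as 300 uM solution) in G418-selected cells seeded at 2000/well and grown 16–24 h.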
Menin-MLL FL inh = inhibitors of human menin-MLL interaction, wild-type MLL peptide; Fluorescence polarization, fluorescein-MLL peptide displacement from menin; FP activity change, % at 61.4 µM; 290,000 tested, under 10 active; inconclusive = falling polarisation curve, or a change in total fluorescence; inactive = total fluorescence flat and polarisation flat or rising; no compound was filed as active; the % refers to the polarisation; negative = inhibition;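 note: % of control where 0% means no effect; inhibitors lower the polarisation; unlabelled MLL peptide was the positive control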
TRPV1 PAM = human TRPV1 potentiation | AID 540277 | 0.02% of 320,000 active | Q8NER1 | potentiation, % at 8.33 µM | TRPV1-expressing cells, Fluo-8 calcium influx, capsaicin EC20 potentiation; host cell line not named in the record; control for the full effect not named in the record; active means potentiation above 80%; inconclusive means 30% to 80%; inactive means below 30%; note: 0% is about no effect
Target sequence (Q8NER1 whole entry, looked up): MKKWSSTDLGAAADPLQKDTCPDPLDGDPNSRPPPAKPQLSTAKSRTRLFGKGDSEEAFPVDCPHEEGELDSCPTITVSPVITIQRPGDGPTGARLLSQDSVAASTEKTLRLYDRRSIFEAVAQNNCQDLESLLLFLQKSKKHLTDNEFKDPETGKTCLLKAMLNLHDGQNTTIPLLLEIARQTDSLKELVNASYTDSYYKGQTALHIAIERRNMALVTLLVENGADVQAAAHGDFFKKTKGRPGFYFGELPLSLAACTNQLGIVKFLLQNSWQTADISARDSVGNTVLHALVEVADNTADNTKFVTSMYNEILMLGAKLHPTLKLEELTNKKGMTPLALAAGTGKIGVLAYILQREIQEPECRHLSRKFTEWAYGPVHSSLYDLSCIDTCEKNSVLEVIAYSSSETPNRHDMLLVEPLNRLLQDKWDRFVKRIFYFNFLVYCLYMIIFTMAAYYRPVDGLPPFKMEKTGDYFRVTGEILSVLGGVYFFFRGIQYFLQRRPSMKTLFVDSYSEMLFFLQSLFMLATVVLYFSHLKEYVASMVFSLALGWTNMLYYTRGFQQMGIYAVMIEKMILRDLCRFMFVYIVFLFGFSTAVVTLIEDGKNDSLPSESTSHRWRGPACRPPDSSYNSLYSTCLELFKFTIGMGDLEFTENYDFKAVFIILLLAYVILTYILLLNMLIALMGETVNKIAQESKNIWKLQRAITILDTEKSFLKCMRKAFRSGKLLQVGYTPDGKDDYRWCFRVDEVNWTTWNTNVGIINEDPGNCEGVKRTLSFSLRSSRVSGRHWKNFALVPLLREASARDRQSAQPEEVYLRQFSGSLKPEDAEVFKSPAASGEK
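TRPV1-expressing cells were cultured overnight at 35.5C and loaded with Fluo-8 calcium dye for 40 to 90 min at room temperature. After a 10 s baseline, compound was added and calcium influx was read kinetically for 3 min (ex 480/em 520 nm).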
Sfp inh = blocks B. subtilis Sfp PPTase activity | Biochemical Sfp PPTase activity, qHTS | Q9F4F7 | AID 1490 | 3.5% of 310,000 active | Potency, µM, inactives show max response, negative = inhibition, actives largely listed as inhibitors; active = well fitted inhibition curve with a large enough effect; inconclusive = small, poorly fitted or top-dose-only effect, or another doubt; inactive = no such curve, though single readings can be large or run the other way;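 note: the enzyme is Sfp with the accession as filed and its product quenches rhodamine fluorescence; potency is the fitted concentration of half-maximal effect; 0% = enzyme reaction without inhibitor and -100% = no enzyme wells; top concentration of the series not given in the record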
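Reaction rates are the 30-min fluorescence difference (ex 525, em 598 nm) in wells containing 15 nM Sfp, 5 uM rhodamine-CoA and 12.5 uM BHQ-2-YbbR at pH 7.6 with 10 mM MgCl2.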
* marks the source's active call; other numbers are inactive results; ? = inconclusive; . = no result given; & = joins results of further samples; [ ] = remark or other dose. Rows were taken by chance; any-hit rate near 5.3%.

item	Compound	ClpP mod	gsp agonist	CtBP-E1A inh	gsp antag
1	O=C(Nc1cc2c3c(c1)CC(=O)N3CCC2)c1ccccc1C(F)(F)F	-3.3%	21.1%	-0.4	16.7%
2	Cc1ccc(NC(=O)c2ncn(CC(=O)NCc3nc4ccccc4[nH]3)n2)cc1C	4.4%	.	0.0	10.4%
3	Cc1c(C=O)c2ccccn2c1C(=O)c1ccccc1	?	?	6.6	0.1%
4	O=c1cc2c(nn1Cc1cccc([N+](=O)[O-])c1)-c1ccccc1CC2	-1.1%	-6.3%	-7.1	-4.5%
5	O=C(Nc1ccccc1Sc1ccccc1)C1CCCO1 (configuration not stated)	-1.4%	-8.4%	1.0	-13.8%
6	O=C(N/N=C/c1coc2ccccc2c1=O)c1ccc(Cl)cc1	7.8%	0.2%	12.9	-8.8%
7	CCn1c(COc2cccc(OC)c2)nnc1SCC(=O)Nc1cccc(OC)c1	-3.6%	-17.7%	-17.2	-23.6%
8	CN(C)N1C(N)=C(C#N)C(c2ccc(Br)cc2)C2=C1CC(C)(C)CC2=O (configuration not stated)	.	-6.5%	6.8	11.9%
9	COCCCNC(=O)CCC(=O)NNc1nc2ccccc2c2nc(-c3ccccc3)nn12	-1.2%&0.6%	-3.1%[15.4 µM]	3.0	-1.2%
10	CCCN(CC(=O)Nc1ccccc1OC)C(=O)CSC(=S)N1CCCC1	1.8%	-16.8%	-0.2	-8.4%
11	Cc1ccc(OCC(=O)Nc2cccc(-c3nnc(-c4ccccc4)o3)c2)c(C)c1	?	-1.0%	5.5	-0.4%
12	O=C(/C=C/c1ccc2ccccc2n1)N1CCN(S(=O)(=O)c2ccccc2F)CC1	-6.0%	-35.2%[inhibitor]	5.8	-26.5%

item	Menin-MLL FL inh	TRPV1 PAM	Sfp inh
1	.	19.7	.
2	.	.	.
3	-0.6	-13.6	8.1%
4	-6.5	-0.1	2.1%
5	3.1	-28.8	15.3%
6	-4.8	-3.6	8.9%
7	1.7	23.5	-0.4%
8	-1.2	11.8	-5.6%
9	-1.5	7.4	21.6%
10	.	-8.6	.
11	2.4	-2.9	?
12	0.3	-13.7	5.6%

item	Compound	ClpP mod	gsp agonist	CtBP-E1A inh	gsp antag
13	C[C@]12c3[nH]c4ccc(Cl)cc4c3CCN1C(=O)[C@@H](CC(=O)NCCc1ccccn1)C[C@@H]2C(=O)N1CCCCC1	0.0%	.	-0.1	-5.7%
14	CCOC(=O)c1c(NC(=O)CSc2nnc3c(n2)[nH]c2ccccc23)sc2c1CCN(C)C2	-21.5%	4.6%	-24.1	-8.4%
15	CC(=O)C(Sc1ccc2nnc(-c3ccc(C)cc3)n2n1)C(C)=O	0.2%	?	-3.3	-24.3%
16	Cc1ccccc1Nc1nc(-c2sc(NC(=O)c3ccc([N+](=O)[O-])cc3)nc2C)cs1	.	.	.	.
17	CC1CCN(c2c(NCc3ccc(C(=O)N(C)C4CCCCC4)cc3)c(=O)c2=O)CC1	0.5%	26.1%	1.0	-6.4%
18	NC(=O)c1c(NC(=O)CSc2nnc(-c3ccccc3)n2CC2CCCO2)sc2c1CCC2 (configuration not stated)	-2.0%	-30.2%[inhibitor]	-12.1	-12.4%
19	Nc1nc2c(s1)C(=O)CCC2	-1.0%	-24.3%	4.8	-0.1%
20	COc1ccc(CC(=O)NCC(=O)N/N=C/c2ccc(C)o2)cc1	-2.1%	-14.8%	-1.2	9.4%
21	COC(=O)Nc1nnc(SCc2ccc(C)cc2)s1	-1.7%	-75.3%[inhibitor]	-3.8	7.1%
22	COc1ccc(/C=N/N2CCN(c3ccccc3)CC2)cc1Br	1.9%	6.2%	4.7	-4.2%
23	CCCc1c(C)nn(-c2ncccc2[N+](=O)[O-])c1C	1.4%	-1.1%	4.6	-0.3%
24	C=CCC[C@@H](Cc1ccc(F)cc1)C(=O)OCCNC(=O)[C@@H](CC=C)CC(=O)N(CCO)Cc1ccccc1	1.2%	.	0.8	-34.8%

item	Menin-MLL FL inh	TRPV1 PAM	Sfp inh
13	.	.	.
14	.	.	.
15	-3.9	-4.8	-14.1%
16	5.2	6.0	-10.5%
17	3.1	-4.9	4.5%
18	6.1	-13.5	-11.4%
19	6.0	-13.2	20.6%
20	0.8	1.0	6.3%
21	-1.2	24.7	-12.0%
22	1.9	?	9.6%
23	-4.4	5.4	16.8%
24	.	.	.

Arranged by heavy-atom count (ascending): some entries from above.
item	Compound	ClpP mod	gsp agonist	CtBP-E1A inh	gsp antag
19	Nc1nc2c(s1)C(=O)CCC2	-1.0%	-24.3%	4.8	-0.1%
24	C=CCC[C@@H](Cc1ccc(F)cc1)C(=O)OCCNC(=O)[C@@H](CC=C)CC(=O)N(CCO)Cc1ccccc1	1.2%	.	0.8	-34.8%
13	C[C@]12c3[nH]c4ccc(Cl)cc4c3CCN1C(=O)[C@@H](CC(=O)NCCc1ccccn1)C[C@@H]2C(=O)N1CCCCC1	0.0%	.	-0.1	-5.7%

item	Menin-MLL FL inh	TRPV1 PAM	Sfp inh
19	6.0	-13.2	20.6%
24	.	.	.
13	.	.	.

Following part
item	Compound	ClpP mod	gsp agonist	CtBP-E1A inh	gsp antag
25	O=C(COc1ccc(-c2ccccc2)cc1)N1CCCC1	-0.1%	5.4%	.	-6.9%
26	O=C(NCCN1C(=O)C2C3C=CC(C3)C2C1=O)N1CCOCC1 (configuration not stated)	-2.0%	?	4.6	5.0%
27	Cc1cc(-c2nn(-c3ccccc3F)cc2CN2CCCC(C(N)=O)C2)c(C)s1 (configuration not stated)	.	-15.7%[15.4 µM]	-0.1	8.1%
28	O=C(O)c1nc(-c2ccccc2)n(-c2ccccc2)n1	0.4%	8.6%	-19.9	15.0%
29	O=C(Nc1cccc(S(=O)(=O)NC2=NCCCCC2)c1)c1cc(-c2ccco2)nc2ccccc12	.	-2.3%[15.4 µM]	-1.5	-8.5%
30	COc1ccc(-c2nc(C(F)(F)F)c(OC)o2)cc1OC	?	11.1%	0.4	31.9%[activator]
31	CCOC(=O)C1=C(COC(=O)/C=C/c2ccc(F)cc2)NC(=O)NC1C (configuration not stated)	-1.1%	-21.8%	-2.4	.
32	C(=N\n1cnnc1)/c1cccc2ccccc12	?	1.4%	-2.0	-6.0%
33	O=C(CS(=O)(=O)c1ccc(Cl)c(Cl)c1)Nc1ccccc1Cl	-0.7%	-30.6%[inhibitor]	0.3	-5.7%
34	O=C(CN1C(=O)COc2ccc(S(=O)(=O)N3CCCC3)cc21)NC1CC1	-1.3%	22.2%	15.5	-18.7%
35	COc1ccc(/C=C/C(=O)N/C(=C\c2ccco2)C(=O)NCCc2nc3ccccc3[nH]2)cc1	0.6%	-31.5%[inhibitor]	?	-25.4%
36	COc1ccc(C(=O)N2CCCC(CCC(=O)N3CCN(c4ccccn4)CC3)C2)cc1 (configuration not stated)	?	-11.1%[15.4 µM]	0.9	-2.9%

item	Menin-MLL FL inh	TRPV1 PAM	Sfp inh
25	-6.5	-8.8	9.7%
26	1.4	9.6	16.1%
27	1.3	-21.8	5.8%
28	2.9	-4.2	7.7%
29	?	.	5.01µM*
30	6.5	-2.9	7.1%
31	.	.	.
32	-4.3	3.5	2.8%
33	0.0	-17.3	-1.4%
34	0.4	?	-2.8%
35	4.5	2.8	?
36	1.9	-12.6	7.5%

item	Compound	ClpP mod	gsp agonist	CtBP-E1A inh	gsp antag
37	CC(=O)NN1C(=O)c2ccccc2NC1c1ccccc1F (configuration not stated)	3.2%	16.0%	3.4	-3.8%
38	CCc1nc(C)cn1S(=O)(=O)c1cc(C)c(OC)cc1C	0.9%	21.7%	6.3	2.0%
39	CCC(=O)Nc1ccc(C(=O)N/N=C/c2c(C)[nH]c3ccccc23)cc1	.	14.5%[15.4 µM]	7.8	.
40	CCc1ccc(OCCCC(=O)Nc2cccc(C(=O)O)c2)cc1	.	1.9%[15.4 µM]	7.7	2.9%
41	C/C(=N\NC(=O)C1COc2ccccc2O1)c1ccc(N2CCOCC2)cc1 (configuration not stated)	1.1%	8.2%[15.4 µM]	-4.1	-8.2%
42	N#Cc1ccccc1S(=O)(=O)N1CCN(CC(=O)Nc2ccnn2C2CCCC2)CC1	-2.5%	18.9%[15.4 µM]	2.4	-19.0%
43	COc1ccc(S(=O)(=O)Nc2ccccc2C(N)=O)cc1OC	.	-2.7%[15.4 µM]	7.1	5.3%
44	CCC(C)NC(=O)C1CCCN(C(=O)Nc2ccc(F)cc2)C1 (configuration not stated)	-0.1%	16.4%	4.8	-11.9%
45	c1ccc2sc(NC3=NCN(Cc4ccc5c(c4)OCO5)CN3)nc2c1	?	34.6%	-6.4	5.1%
46	COc1cc(SC)ccc1C(=O)NCC1CCCCC1	.	-8.3%[15.4 µM]	4.5	-22.3%

item	Menin-MLL FL inh	TRPV1 PAM	Sfp inh
37	-1.4	?	-29.2%
38	0.3	14.3	-3.5%
39	0.0	13.6	-3.5%
40	2.2	10.6	1.2%
41	-3.1	16.4	-4.2%
42	.	-0.1	.
43	-0.9	16.2	8.0%
44	3.7	3.4	19.1%
45	3.9	-13.3	18.9%
46	4.6	-11.2	14.9%

Filtered by structure, the entries above containing a Cl atom (3)
item	Compound	ClpP mod	gsp agonist	CtBP-E1A inh	gsp antag
6	O=C(N/N=C/c1coc2ccccc2c1=O)c1ccc(Cl)cc1	7.8%	0.2%	12.9	-8.8%
13	C[C@]12c3[nH]c4ccc(Cl)cc4c3CCN1C(=O)[C@@H](CC(=O)NCCc1ccccn1)C[C@@H]2C(=O)N1CCCCC1	0.0%	.	-0.1	-5.7%
33	O=C(CS(=O)(=O)c1ccc(Cl)c(Cl)c1)Nc1ccccc1Cl	-0.7%	-30.6%[inhibitor]	0.3	-5.7%

item	Menin-MLL FL inh	TRPV1 PAM	Sfp inh
6	-4.8	-3.6	8.9%
13	.	.	.
33	0.0	-17.3	-1.4%
